Screening data: PubChem, several laboratories
Autofluor counter: counter-screen for toxin protease inhibitors: compound fluorescence; fluorescence intensity (no concentration beside the values); 360,000 compounds, 3.1% hits; compound autofluorescence counterscreen, microsphere flow cytometry; hits give high values; AID 624483;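 active = at least 3 SD above the mean of all compounds, about 16000 in these data; inconclusive = too few beads counted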;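 note: 100 nL of 1 mM stock went into each well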
RN4220 kill: growth inhibition of S. aureus RN4220, primary screen, OD600. 16 h. inhibition, % (test concentration not listed). 330,000 compounds, 0.33% hits. AID 1259311, 2017;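 active = z-score of -3 or lower and OD600 up to 0.18 on both plates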;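 note: plate controls were untreated cells for no effect and reference antibiotic for full effect; stock transfer was 100 nL into about 80 µL; one replicate is shown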
Mtb hypoxia rep: PubChem AID 1159583; fluorescence inhibition, % (concentration not given with the values); M. tuberculosis hypoxia-regulated fluorescent reporter, fluorescence; 300,000 compounds, 0.1% hits;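 active = 35 to 45% if threefold the growth effect, above 45% if 1.5-fold the growth effect; inactive = the rest, general growth blockers included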;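 note: wells of about 50 µL received 100 nL stock; 0% = vehicle wells and 100% = reference inhibitor wells; whole bacteria with a GFP reporter of the hypoxia response; strong numbers were not always called active; many hits fall short of the cut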
ugtP null kill: growth inhibition of ugtP-null S. aureus, primary screen, RN4220 ugtP deletion, OD600; growth inhibition, % (concentration not given with the values); AID 1259309, 2017; 16 h; some inactives read as strong as hits; 330,000 compounds, 0.54% hits;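 active = z-score under -3 and OD600 up to 0.15 on both plates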;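 note: plate controls were untreated wells for no effect and antibiotic for full effect; wells of about 80 µL received 100 nL stock; the first replicate is given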
BJeLR lethal: MLPCN primary cell-based screen for lethality selective to Ras in HRASV12 cells. AID 1554, 2009. 300,000 compounds, 0.17% hits. BJeLR (HRASV12) viability, CellTiter-Glo ATP luminescence, 48 h; reference of the scale not given here. inhibition, % (test concentration not listed);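 active = replicate mean above 50%; inconclusive = above 50% but judged a plate artefact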;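 note: 50 nL library stock added to about 25 µL; numbers are from one replicate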
PrP 5UTR inh: inhibition of PrP 5' UTR reporter expression. inhibition, % (no concentration beside the values). 340,000 compounds, 0.35% hits. AID 488862, 2010. cell-based PrP 5' UTR mRNA reporter, plate reader;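 active = every replicate at 50% or more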;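 note: 0 = median of the neutral control wells; tested in H4 reporter cells; numbers are from one replicate; inactives centre near -14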
Mtb hypoxia rep growth: further read-out of Mtb hypoxia rep, marked with its call; growth inhibition, %; measured here: M. tuberculosis growth (absorbance);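 0% = vehicle and 100% = reference antibiotic; read after six days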
Active calls of the source: *; ? = inconclusive; nt = no result given; & = joins results of further samples.

SMILES	Autofluor counter	RN4220 kill	Mtb hypoxia rep	Mtb hypoxia rep growth	ugtP null kill	BJeLR lethal	PrP 5UTR inh
Cc1cc(C)cc(NC(=O)C2(c3cccs3)CCOCC2)c1	7645	12	14	4	9	11	-24
CCOC(=O)Cn1c(=O)oc2cc(S(=O)(=O)NCCc3ccc(OCC)c(OCC)c3)ccc21	22861*	4.9	7	6	0	-8	-11
CC(=O)Nc1ccccc1C(=O)N1CC2(C)CC1CC(C)(C)C2 (stereo unspecified)	9248	3.3	10	13	5	-2	-14
Cc1cc(C)c(S(=O)(=O)c2ccccc2)c(OC(=O)c2c(Cl)cccc2Cl)n1	3895	nt	nt	nt	nt	11	-21
C/C(N)=C(/C#N)C(=O)CSc1nnc(COc2cc(C)ccc2C)o1	9363	4.4	8	0	-10	2	-7
Cc1nc([N+](=O)[O-])nn1C12CC3CC(CC(Br)(C3)C1)C2	6883	1.2	6	-1	47	2	2
c1ccc(Sc2ccccc2CN2CCCC2)cc1	6141	1.5	9	1	2	0	nt
COc1ccc(-c2nn(C)c(=O)c3ccccc23)cc1NC(=O)COc1ccc(C)cc1	14691	5.8	5	6	-16	2	-5
COc1ccc(OC)c(NC(=O)CSc2sc3c(O)cc(=O)[nH]c3c2C#N)c1	3785	-0.3	4	2	10	-3	-18
CC(=O)N1CCc2c(sc(NC(=O)C3CC3)c2-c2nc3ccccc3s2)C1	6145	9.5	1	-1	26	5	-10
CCn1c(/C=C/c2ccccc2Cl)nc2ccccc2c1=O	3779	-2.3	4	4	14	-3	-24
O=C(C/C=N/OCc1c(Cl)cccc1Cl)c1ccc(Cl)cc1	?	nt	nt	nt	nt	-1	-9
COc1cc(NC(=O)COc2cc3oc(=O)cc(C)c3cc2Cl)cc(OC)c1OC	5369	-2.3	-7	6	-4	-3	2
c1ccc2c(c1)CCN2CCN1CCc2ccccc21	1798	-1.4	nt	nt	17	-5	-38
COc1ccc(C(=O)Nc2ccc(C)cn2)c(OC)c1	21063*	3.0	13	12	8	12	79*
CCn1c(CN(C)c2ccccc2)nc2ccccc21	3168	-1.5	3	-1	3	7	-11
O=C(Cc1cccc(NC(=O)C2CCN(C(=O)CCc3ccccc3)CC2)c1)Nc1cccc(C(=O)N2CCCC2)c1	4193	9.2	16	12	-1	nt	-7
CCc1ccc(C(C)NC(=O)/C=C/c2ccc(Br)cc2)cc1 (stereo unspecified)	22674*	-8.9	2	7	6	3	-8
Cc1nc(SC2CCOC2=O)c2c(C)c(C)sc2n1 (stereo unspecified)	2342	4.8	9	7	-2	-8	-4
Cc1cc(NC(=O)c2ccc(Br)o2)ccc1NC(=O)c1ccco1	5696	5.7	5	4	11	18	-15
Cc1ccc(N2CCN(/N=C/c3ccccc3[N+](=O)[O-])CC2)cc1	4337	nt	nt	nt	nt	0	14
c1ccc2c(c1)Nc1ccncc1S2	4410	6.5	15	0	-6	2	-1
CCOc1ccc(S(=O)(=O)Nc2ccc(OC)nc2)cc1	5489	5.0	-5	10	-1	1	-14
COc1cccc(CN2CCC(Oc3ccc(C(=O)N4CCCCC4)cc3)CC2)c1	6465	2.2	4	0	8	1	-17
CC(=O)NCc1ccc(S(=O)(=O)NC(C(=O)O)C(C)C)cc1 (stereo unspecified)	5208	5.2	-3	8	3	28	-12
CN(C)/C=C(\C#N)S(=O)(=O)C(C)(C)C	3660	4.9	5	-1	2	2	-24
Cc1cc(Cl)c2oc(C(=O)N3CCC(O)(c4ccccc4)CC3)c(C)c2c1	3684	6.0	7	7	-1	-16	-21
O=C(O)c1cccc2c(-c3ccccc3)c(-c3ccccc3)[nH]c12	3541	-10	15	-4	42	-4	2
CCC(C)C(C(=O)NCCCCCCCCCCC(=O)N1CCN(C(=O)OC(C)(C)C)CC1)n1cc(CCCCCNC(=O)OC(C)(C)C)nn1 (stereo unspecified)	nt	0.9	-5	9	-11	nt	nt
COc1ccc(C2C(C(C)=O)=C(O)C(=O)N2Cc2ccccc2)c(OC)c1 (stereo unspecified)	3668	5.7	2	8	7	-1	1
CCOC1OC(C(=O)N2CCN(Cc3ccc4c(c3)OCO4)CC2)=CC(C2CC2)C1CCCO (stereo unspecified)	nt	1.7&3.6	4&3	8&8	2&-9	nt	nt
Cc1ccc(N2CCN(S(=O)(=O)c3nnc(NC(=O)c4ccccc4)s3)CC2)cc1	5660	8.8	-5	3	-7	2	-7
OCC12CO[C@@H]3c4ccccc4[C@H](OC1)N32 (stereo partly specified)	4330	1.0	nt	nt	1	-4	-9
Cc1cccc(C)c1OCC(=O)NCc1nnc(SCC(=O)NC2CCCCC2C)n1C (stereo unspecified)	10797	8.2	4	0	2	2	-27
CC(Nc1n[nH]c(=O)[nH]c1=O)C(=O)N/N=C/c1cccs1 (stereo unspecified)	5025	nt	nt	nt	nt	3	-13
Cc1c(NC(=O)CCC2CCCCC2)c(=O)n(-c2ccccc2)n1C	8024	0.9	7	7	2	3	8
O=C(Nc1cccc(Cl)c1)C1CCCN(S(=O)(=O)c2ccc(F)cc2)C1 (stereo unspecified)	20734*	-0.2	5	-1	-12	-8	-18
COc1ccccc1C(=O)C1CCCN(C(=O)c2ccccc2Cl)C1 (stereo unspecified)	6044	nt	nt	nt	nt	2	3
Cc1ccc(C(=O)c2coc3ccc(O)c(CN(C)C)c23)cc1	3078	6.2	9	7	8	-11	-10
COCCNC(=O)c1cnn2c1NC(c1ccco1)CC2C(F)(F)F (stereo unspecified)	6836	1.0	7	10	0	5	-3
O=C(Nc1ccc(F)cc1F)c1cc(=O)n(-c2ccccc2)c(=O)[nH]1	2156	2.6	8	4	4	-7	-18
O=C(O)C1CCCCC1C(=O)Nc1cccc(Br)c1 (stereo unspecified)	2850	8.0	18	9	3	nt	-3
COc1ccc(C(C)=NNC(=O)CNC(=O)/C=C\c2ccccc2)c(OC)c1	nt	-0.9	4	-4	2	nt	nt
CCOC(=O)c1ccccc1NC(=O)COC(=O)CCC1CCCC1	3195	5.4	-2	-3	6	nt	-30
Cc1ccc([C@@H]2CC=C(C(=O)O)[C@H](c3ccccc3)N2S(=O)(=O)c2ccccc2C)cc1	3491	20	-5	2	-4	nt	-15
CCOc1ccc(N(CC(=O)NN=Cc2ccc(OC(C)C)cc2)S(C)(=O)=O)cc1	nt	3.0	2	1	0	nt	nt
NC(=O)[C@@H]1CCCCNc2c(F)cc([N+](=O)[O-])cc2C(=O)N[C@@H](CCCN=C(N)N)C(=O)NCC(=O)N1	3037	nt	nt	nt	nt	-13	-21
CC(C)(C)C(=O)n1nc(-c2ccccc2)oc1=O	2031	6.5	7	0	-8	9	-11
CCN(CC)S(=O)(=O)c1ccc(N2CCOCC2)c(NC(=O)C23CC4CC(CC(Cl)(C4)C2)C3)c1	2586	3.5	1	1	3	-4	-15
O=C(Oc1c(-c2ccccc2)c(=O)n2c3c(cccc13)CC2)c1ccc(F)cc1	4267	3.6	7	-1	-2	-2	-22
Next section
SMILES	Autofluor counter	RN4220 kill	Mtb hypoxia rep	Mtb hypoxia rep growth	ugtP null kill	BJeLR lethal	PrP 5UTR inh
COc1ccc(C(=O)NCc2nnc(SCC(=O)NCc3ccc(F)cc3)o2)cc1	3559	-1.8	nt	nt	6	1	-5
CCCOc1ccc(C2=CSC3=NCCN23)cc1[N+](=O)[O-]	3827	6.0	1	11	18	-9	-9
CCN1C(=O)CC(N2CCN(c3cccc(OC)c3)CC2)C1=O (stereo unspecified)	4361	1.5	3	19	0	-4	-20
Cc1cccc(OCC(=O)NCc2ccncc2)c1C	6186	7.9	4	1	13	5	-2
O=C(CN(CC1CCCO1)C(=O)CNS(=O)(=O)c1ccc(F)cc1)NCc1ccco1 (stereo unspecified)	4289	5.8	13	10	4	-5	-12
COc1ccc(N2CC(=O)N(c3ccc(OC)c(OC)c3)CC2=O)cc1OC	2232	1.3	nt	nt	-3	-1	2
CCCCn1c(O)c(C(C)=NCc2ccc(F)cc2)c(=O)[nH]c1=O	23819*	1.5	-1	6	-4	6	6
O=C(NCCN1CCCc2ccccc21)C1CCC(=O)N(CCc2ccccc2)C1 (stereo unspecified)	5230	2.7	6	5	0	-6	-9
O=[N+]([O-])c1cc(S(=O)(=O)N2CCCCC2)ccc1NCCCN1CCOCC1	3055	3.8	-1	1	4	5	-13
COC(=O)c1ccc(OC)c(Cn2c(=O)n(C)c(=O)c3ccccc32)c1	3234	-3.3	-3	0	2	-2	-6
O=C(CN1C(=O)CN=C(c2ccccc2Cl)c2cc(Cl)ccc21)NCc1ccco1	2255	2.3	8	9	-17	-5	-20
CCOC(=O)CSc1nnc(NC(=O)c2cccc(S(=O)(=O)N3CCCCCC3)c2)s1	24044*	4.3	-3	5	-5	-6	-29
CN1CCC(OC(=O)c2cc3cc(Cl)cc(Cl)c3oc2=O)CC1	4615	2.3	3	-3	2	4	1
COC(=O)c1cccc(CN2C(=O)SC(Nc3ccccc3)C2=O)c1 (stereo unspecified)	5921	4.0	12	6	1	7	-15
CN(Cc1ccccc1)S(=O)(=O)c1ccc(NC(=S)NC(=O)C2CCCC2)cc1	11813	-1.7	9	18	25	25	-29
COc1ccccc1/C=N/NC(=O)CCn1cnc2ccccc21	2464	nt	nt	nt	nt	21	-26
O=C(NCc1ccncc1)C1CCCN(S(=O)(=O)c2cc(Cl)ccc2Cl)C1 (stereo unspecified)	?	-0.7	-2	0	9	-14	-4
C[C@@H]1CCC[C@H](C)N1NC(=O)c1ccc(Cl)c(S(N)(=O)=O)c1	6013	nt	nt	nt	nt	10	-7
O=C(COc1ccc2ccccc2c1Br)N1CCOCC1	3158	8.9	10	11	-3	-12	-49
COc1ccc(CCNC(=O)c2ccc(CNc3c(N4CCOCC4)c(=O)c3=O)cc2)cc1OC	2597	-2.8	nt	nt	-8	6	-10

A draw from above in order of length of the SMILES, high to low.
SMILES	Autofluor counter	RN4220 kill	Mtb hypoxia rep	Mtb hypoxia rep growth	ugtP null kill	BJeLR lethal	PrP 5UTR inh
NC(=O)[C@@H]1CCCCNc2c(F)cc([N+](=O)[O-])cc2C(=O)N[C@@H](CCCN=C(N)N)C(=O)NCC(=O)N1	3037	nt	nt	nt	nt	-13	-21
Cc1ccc([C@@H]2CC=C(C(=O)O)[C@H](c3ccccc3)N2S(=O)(=O)c2ccccc2C)cc1	3491	20	-5	2	-4	nt	-15
O=C(CN(CC1CCCO1)C(=O)CNS(=O)(=O)c1ccc(F)cc1)NCc1ccco1 (stereo unspecified)	4289	5.8	13	10	4	-5	-12
COc1cc(NC(=O)COc2cc3oc(=O)cc(C)c3cc2Cl)cc(OC)c1OC	5369	-2.3	-7	6	-4	-3	2
O=C(Nc1cccc(Cl)c1)C1CCCN(S(=O)(=O)c2ccc(F)cc2)C1 (stereo unspecified)	20734*	-0.2	5	-1	-12	-8	-18
COc1cccc(CN2CCC(Oc3ccc(C(=O)N4CCCCC4)cc3)CC2)c1	6465	2.2	4	0	8	1	-17
COc1ccc(N2CC(=O)N(c3ccc(OC)c(OC)c3)CC2=O)cc1OC	2232	1.3	nt	nt	-3	-1	2
CC(Nc1n[nH]c(=O)[nH]c1=O)C(=O)N/N=C/c1cccs1 (stereo unspecified)	5025	nt	nt	nt	nt	3	-13
O=C(O)C1CCCCC1C(=O)Nc1cccc(Br)c1 (stereo unspecified)	2850	8.0	18	9	3	nt	-3
O=C(COc1ccc2ccccc2c1Br)N1CCOCC1	3158	8.9	10	11	-3	-12	-49
c1ccc2c(c1)CCN2CCN1CCc2ccccc21	1798	-1.4	nt	nt	17	-5	-38

(continued)
SMILES	Autofluor counter	RN4220 kill	Mtb hypoxia rep	Mtb hypoxia rep growth	ugtP null kill	BJeLR lethal	PrP 5UTR inh
O=C(NCc1ccc2c(c1)OCO2)c1ccc(Cl)c(S(=O)(=O)N2CCOCC2)c1	23645*	3.3	4	5	9	4	-16
Cc1ccc(-c2csc3ncnc(N4CCN(S(=O)(=O)c5cccs5)CC4)c23)cc1	3306	97*	-16	-12	98*	nt	-18
Cc1cccc2cc(CNCc3ccccc3)c(Cl)nc12	4261	3.3	13	2	5	4	-9
Cc1cccc(C=NNC(=O)CNc2cccc3ccccc23)n1	nt	-2.1	-1	-21	-12	nt	nt
